miR-21 FLuc: qHTS Assay for Modulators of miRNAs and/orActivators of miR-21. HeLa miR-21 FLuc reporter, luciferase, 48 h. Potency, µM (titrated, usually from 38.3 µM), inactives show at the top dose reporter change, positive = more light. 340,000 tested, under 10 active. AID 2288, 2010; active = well fitted rising curve with a large enough effect; inconclusive = small, poorly fitted or top-dose-only effect; inactive = no such curve, though single readings can be large or run the other way;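 also: % of control where 0% means no effect; miR-21 action dims this reporter so a rising signal means less miR-21 action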
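HeLa miR-21-FLuc reporter line, endogenous miR-21; 2000 cells/well in DMEM/10% FBS; compound titration up to ~40uM final, 48 h, 37 degree Celsius; luciferase detection reagent, 15 min lysis, CCD luminescence.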
Rango dissoc inh: qHTS Assay for Inhibitors of RanGTP induced Rango (Ran-regulated importin-beta cargo) - Importin beta complex dissociation; Potency, µM (series often up to 46.1 µM), for inactives: top-dose activity change, negative = inhibition; 0.071% of 340,000 active; Biochemical FRET Rango-importin beta, RanGTP-induced dissociation; Snurportin-1 (Homo sapiens) + GTP-binding nuclear protein Ran (Homo sapiens) + Importin …; active means falling FRET ratio curve, often poorly fitted, with flat reads before Ran was added; inconclusive means other falling curves, or compound fluorescence or quenching; inactive means flat or rising ratio curve;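 also: potency is read from the fitted curve at half-maximal effect; % of control where 0% means no effect; nearly all actives have a fitted effect of over 45% in size; -100% = wells without RanGTP and RCC1; the record marks most hits as doubtful in a second field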
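Rango (0.1 uM)–importin beta (0.25 uM) complex; RanGTP-RCC1 trigger; 45 min RT; CFP/YFP FRET read.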
Rango complex inh: qHTS Assay for Inhibitors of Rango (Ran-regulated importin-beta cargo) - Importin beta complex formation | Importin subunit beta-1 (Homo sapiens), Q14974 | Rango CFP/YFP FRET sensor + importin beta, 45 min | Potency, µM (highest dose often 92.2 µM), inactives show at the highest dose inhibition of complex formation | 0.031% of 340,000 active | AID 540263, 2011; active = rising FRET ratio curve, often small or poorly fitted; inconclusive = mostly compound fluorescence or quenching in the first reads; inactive = flat curves in all reads;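 also: potency is read from the fitted curve at half-maximal effect; 0% = DMSO wells and 100% = buffer wells lacking importin beta; nearly all actives have a fitted effect of over 15% in size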
Target sequence (Q14974 whole entry, looked up): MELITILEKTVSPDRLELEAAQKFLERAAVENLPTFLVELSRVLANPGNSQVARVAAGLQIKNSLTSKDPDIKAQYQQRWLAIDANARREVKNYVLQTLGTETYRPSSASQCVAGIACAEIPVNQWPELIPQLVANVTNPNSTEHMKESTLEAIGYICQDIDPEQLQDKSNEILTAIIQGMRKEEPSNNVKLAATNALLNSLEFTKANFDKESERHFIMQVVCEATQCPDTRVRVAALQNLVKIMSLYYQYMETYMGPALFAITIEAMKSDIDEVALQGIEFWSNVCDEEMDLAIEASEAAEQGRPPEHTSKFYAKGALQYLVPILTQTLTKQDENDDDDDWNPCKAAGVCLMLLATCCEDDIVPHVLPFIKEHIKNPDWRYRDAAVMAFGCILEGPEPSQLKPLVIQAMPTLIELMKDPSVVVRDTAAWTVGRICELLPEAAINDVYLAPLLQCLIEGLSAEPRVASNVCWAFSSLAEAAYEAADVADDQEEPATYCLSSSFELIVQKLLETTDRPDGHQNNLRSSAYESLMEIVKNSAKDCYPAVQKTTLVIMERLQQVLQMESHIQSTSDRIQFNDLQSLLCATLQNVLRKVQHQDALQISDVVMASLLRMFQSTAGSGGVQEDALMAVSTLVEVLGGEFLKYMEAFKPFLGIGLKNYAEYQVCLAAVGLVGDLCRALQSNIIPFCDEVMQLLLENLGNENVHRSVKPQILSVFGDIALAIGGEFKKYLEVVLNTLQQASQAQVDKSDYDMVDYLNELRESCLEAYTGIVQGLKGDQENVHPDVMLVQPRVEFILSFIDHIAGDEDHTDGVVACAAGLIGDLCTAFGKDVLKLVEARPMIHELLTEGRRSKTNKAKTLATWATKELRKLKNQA
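FRET biosensor (snurportin 1 IBB flanked by EYFP and cerulean), 50 nM, with compound 5 min, then 0.125 microM importin beta in PBS, 1 mM DTT, 0.02% Tween-20, 0.1% BSA. CFP/YFP ratio read after 45 min at room temperature; pre-read flags interference.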
GLA inh pH 4.5: qHTS Assay for Inhibitors of Human alpha-Galactosidase at pH 4.5; activity change, negative = inhibition, % at 105 µM; purified enzyme, 4-MU-alpha-Gal fluorescence, pH 4.5; 230,000 tested, under 10 active; AID 1467, 2008; Alpha-galactosidase A (Homo sapiens), P06280; inconclusive = small, poorly fitted or top-dose-only inhibition, or a rising curve; inactive = flat fitted curve, though single readings scatter; no compound was filed as active;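 also: 0% = full activity with enzyme and -100% = basal without enzyme; dose as in the result columns while the protocol names 77 µM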
Numbers without * were called inactive; ? = inconclusive; nt = not tested or not shown; & = joins results of further samples.

cpd	SMILES	miR-21 FLuc	Rango dissoc inh	Rango complex inh	GLA inh pH 4.5
1	N#CC1(c2ccccc2)CCC(=O)N1Cc1ccccc1 (stereo unspecified)	4.8%	2.3%	0.2%	2.0
2	O=C(CN(CCc1ccccc1)C(=O)CN1C(=O)COc2ccccc21)NCc1ccco1	5.3%	-22.4%	1.6%	3.5
3	Cc1ccc2cccc(OCc3cccc([N+](=O)[O-])c3)c2n1	-6.5%	2.2%	1.7%	nt
4	Cc1ccc(CNC(=O)c2c(-c3ccccc3)sc3ccccc23)o1	nt	-3.5%	-0.8%	nt
5	Cc1nnc(NC(=O)CN2CCN(Cc3ccc(F)cc3Cl)CC2)s1	2.9%	-16.5%	-1.0%	nt
6	CCCCNC(=S)N/N=C/c1sccc1C	-23.7%	-5.7%	-4.6%	-0.4
7	CCOc1ccc(CCNC(=O)CSc2cc(=O)n(CC)c3ccccc23)cc1OCC	-11.6%	1.0%	0.8%	-0.7
8	CCN(CC)CCCN(Cc1cc2cc(OC)ccc2[nH]c1=O)C(=O)Nc1ccc(F)cc1	2.1%	-5.0%	-0.3%	-0.9
9	Cc1cccc(C(=O)Nc2ccccc2C(=O)Nc2ccc(C(=O)O)cc2)c1	0.2%	-18.7%	-0.8%	nt
10	COc1cccc(NC(=S)N(Cc2ccco2)C(C)c2ccco2)c1 (stereo unspecified)	-18.4%	-1.2%	7.1%	-2.3
11	CC1=CC(=O)c2ccccc2C1=O	-4.8%	0.9%&-5.8%	-0.1%&-1.1%	5.3&-0.2
12	COc1ccc(C2Nc3ccccc3C(=O)N2c2ccccc2)cc1CSc1ccccn1 (stereo unspecified)	-27.7%	-2.3%	0.7%	0.5
13	CC(Sc1nnc(C2CC2)n1-c1ccccc1)C(=O)N1CCNC1=O (stereo unspecified)	nt	-0.4%	?	nt
14	CCOC(=O)c1sc2nc(CC(=O)OC)nc(NCCN(CC)CC)c2c1C	2.4%	-9.9%	0.3%	-13.8
15	CCC(C)NC(=O)Cn1cnc2sc(C)c(S(=O)(=O)N3CCN(c4ncccn4)CC3)c2c1=O (stereo unspecified)	-2.4%	2.5%	2.3%	-4.5
16	Cc1ccc(C(=O)OCC(=O)NCc2cc(C)c(O)c(C)c2)cc1S(=O)(=O)N1CCCCC1	nt	10.9%	0.3%	nt
17	Clc1ccc(OCc2nn3c(-c4ccco4)nnc3s2)c(Cl)c1	-8.6%	6.2%	?	7.4
18	COCc1ccc(CN2CCCC(CCC(=O)NCc3ccc(C)o3)C2)o1 (stereo unspecified)	-4.3%	2.2%	-0.4%	-1.6
19	COc1ccc2ccccc2c1/C=N/N1C(=O)CSC1=S	-5.0%	5.0%	0.2%	-3.6
20	O=C(COC(=O)[C@@H]1CCCN1S(=O)(=O)c1ccc(Cl)cc1)NC1CC1	-0.1%	-11.4%	0.8%	nt

14 entries from above, with the structure last:
nr	miR-21 FLuc	Rango dissoc inh	Rango complex inh	GLA inh pH 4.5	molecule
6	-23.7%	-5.7%	-4.6%	-0.4	CCCCNC(=S)N/N=C/c1sccc1C
7	-11.6%	1.0%	0.8%	-0.7	CCOc1ccc(CCNC(=O)CSc2cc(=O)n(CC)c3ccccc23)cc1OCC
8	2.1%	-5.0%	-0.3%	-0.9	CCN(CC)CCCN(Cc1cc2cc(OC)ccc2[nH]c1=O)C(=O)Nc1ccc(F)cc1
9	0.2%	-18.7%	-0.8%	nt	Cc1cccc(C(=O)Nc2ccccc2C(=O)Nc2ccc(C(=O)O)cc2)c1
10	-18.4%	-1.2%	7.1%	-2.3	COc1cccc(NC(=S)N(Cc2ccco2)C(C)c2ccco2)c1 (stereo unspecified)
11	-4.8%	0.9%&-5.8%	-0.1%&-1.1%	5.3&-0.2	CC1=CC(=O)c2ccccc2C1=O
12	-27.7%	-2.3%	0.7%	0.5	COc1ccc(C2Nc3ccccc3C(=O)N2c2ccccc2)cc1CSc1ccccn1 (stereo unspecified)
13	nt	-0.4%	?	nt	CC(Sc1nnc(C2CC2)n1-c1ccccc1)C(=O)N1CCNC1=O (stereo unspecified)
14	2.4%	-9.9%	0.3%	-13.8	CCOC(=O)c1sc2nc(CC(=O)OC)nc(NCCN(CC)CC)c2c1C
15	-2.4%	2.5%	2.3%	-4.5	CCC(C)NC(=O)Cn1cnc2sc(C)c(S(=O)(=O)N3CCN(c4ncccn4)CC3)c2c1=O (stereo unspecified)
16	nt	10.9%	0.3%	nt	Cc1ccc(C(=O)OCC(=O)NCc2cc(C)c(O)c(C)c2)cc1S(=O)(=O)N1CCCCC1
17	-8.6%	6.2%	?	7.4	Clc1ccc(OCc2nn3c(-c4ccco4)nnc3s2)c(Cl)c1
18	-4.3%	2.2%	-0.4%	-1.6	COCc1ccc(CN2CCCC(CCC(=O)NCc3ccc(C)o3)C2)o1 (stereo unspecified)
19	-5.0%	5.0%	0.2%	-3.6	COc1ccc2ccccc2c1/C=N/N1C(=O)CSC1=S

Other records follow.
cpd	SMILES	miR-21 FLuc	Rango dissoc inh	Rango complex inh	GLA inh pH 4.5
21	CC(=O)c1ccc(S(=O)(=O)N2CCN(C(C)C(=O)N(C)Cc3ccccc3)CC2)cc1 (stereo unspecified)	nt	?	0.9%	nt
22	Cc1ccc(C2=NS(=O)(=O)N(C)C(C(=O)NCc3cccs3)=C2)cc1	-0.6%	-8.0%	?	nt
23	O=C(CCC(=O)Nc1ccc(Br)cc1)N/N=C/c1ccc(F)cc1	-1.2%	-8.7%	1.8%	nt
24	CCN(CC)CCCn1c2c(c(SCC(=O)Nc3ccc4c(c3)OCCO4)nc1=O)CCC2	nt	14.0%	0.0%	nt
25	COc1ccc(-c2noc(CSc3nc4sc(C)c(C)c4c(=O)n3-c3ccccc3)n2)cc1	-2.9%	-5.1%	9.3%	5.9
26	Cc1ccc(C(=O)N/C(=C\c2ccc(-c3cccc([N+](=O)[O-])c3)o2)C(=O)NC(C)(C)C)cc1	8.8%	-9.0%	1.7%	0.5
27	O=C(CC1(c2ccc(Cl)cc2)C2CC3CC(C2)CC1C3)NCCO (stereo unspecified)	13.5%	-3.5%	-1.3%	4.5
28	Cc1cc(C(=O)c2cccs2)c(N)s1	-1.8%	-4.2%	3.6%	-4.9
29	Cn1c(CN2CCN(c3cccc(Cl)c3)CC2)nc2ccccc21	-6.9%	-15.9%	3.5%	-3.1
30	CCOC(=O)C1CCN(C(=O)c2cn(CCOC)c(=O)c3c2c2ccccc2n3C)CC1	-5.9%	7.3%	0.4%	5.0
31	CC(C)c1nnc(NC(=O)CCC2CCCCC2)s1	-17.7%	9.0%	-1.0%	nt
32	C/C(=N\NC(=O)OC(C)(C)C)c1ccc(-n2ccnc2)cc1	-10.7%	10.5%	-0.9%	5.2
33	Cc1ccc(C(=O)C2=C(O)C(=O)N(c3ncccn3)C2c2cccc(Cl)c2)o1 (stereo unspecified)	5.6%	nt	nt	-14.2
34	COC(=O)c1ccc(N)nc1	0.0%	37.7%	0.6%	3.8
35	CSc1ccc(CCNC(=O)c2cc(C)nn2-c2ccccc2)cc1	5.6%	-3.7%	0.0%	-1.7
36	CCOc1cc(/C=C2\SC(N3CCCCC3)=NC2=O)ccc1O	-46.8%	?	?	nt
37	CN1CCN(c2ccc3c(c2)C2CC3CCN2C(=O)OCc2ccccc2)CC1 (stereo unspecified)	nt	?	0.3%	nt
38	COc1ccc(NC(C)=O)cc1S(=O)(=O)N1CC=C(c2ccccc2)CC1	nt	2.1%	0.1%	nt
39	Cc1[nH]c2ccc(OC(=O)N3CCOCC3)cc2c1C(=O)OC(C)C	20.3%	-13.3%	1.4%	-12.9
40	CC1(C)Cc2noc(N)c2C(C)(C)N1OC(=O)c1cccs1	-2.5%	-1.0%	3.9%	0.5
41	O=C(C1CCC(CNc2c(N3CCCCC3)c(=O)c2=O)CC1)N1CCCCC1 (stereo unspecified)	2.3%	-3.4%	0.0%	1.1
42	COCCN1CCN(C(=O)C2CCC(=O)N(Cc3cccc(C(F)(F)F)c3)C2)CC1 (stereo unspecified)	-0.6%	-3.5%	-0.5%	nt
43	COc1nc(NCc2ccco2)nc(N2CCC(C)CC2)n1	-15.6%	0.8%	4.7%	-9.3
44	COc1ccc(-c2nnc(N3CCC(C)CC3)c3ccccc23)cc1	-2.5%	-1.2%	-1.0%	5.9
45	O=S1(=O)N=C(Nc2nncs2)c2ccccc21	-0.8%	-7.0%	0.3%	3.4
46	CCOc1ccc(N2C(=O)C(CC(=O)Nc3ccc(F)cc3)N(Cc3ccccn3)C2=S)cc1 (stereo unspecified)	10.0%	-0.7%	-5.1%	-10.1
47	O=c1cc(O)c(-c2cccc(C(F)(F)F)c2)c(Cl)[nH]1	-2.3%	8.7%	2.3%	-14.2
48	O=C(COC(=O)c1ccc(Br)o1)Nc1ncc([N+](=O)[O-])s1	nt	8.8%	-0.4%	nt
49	CCOc1ccc(C(=O)NC(=S)NCc2cccnc2)cc1	-18.2%	-10.6%	1.0%	3.3
50	Cn1c(SCC(=O)Nc2ccc3[nH]c(=O)[nH]c3c2)nnc1-c1ccc(F)cc1	0.2%	1.2%	-3.3%	6.6
51	Cc1cc(Br)cc(C=Nc2ccc(N3CCOCC3)cc2)c1O	nt	1.2%	0.1%	nt
52	CNS(=O)(=O)c1cc2c3c(cccc3c1)C(=O)NC2=O	-12.4%	2.9%	-0.6%	-7.2
53	CCC(C)NC(=O)C1CCN(c2nc(OC)nc(OC)n2)CC1 (stereo unspecified)	-3.7%	0.5%	1.2%	-3.4
54	CC(C)CN(C(=O)COC(=O)CN1C(=O)c2ccccc2C1=O)c1c(N)n(Cc2ccccc2)c(=O)[nH]c1=O	nt	-4.5%	-5.0%	nt
55	CCOC(=O)C1CCN(C(=O)Cc2ccc(C)cc2)CC1	-15.5%	19.9%	-3.5%	0.2
56	CCNC(=O)COc1ccc(/C=C2\COc3ccccc3C2=O)cc1OC	?	-15.8%	4.0%	nt
57	O=C(NC(=S)Nc1ccccc1C(F)(F)F)c1ccccc1F	-18.8%	14.3%	1.2%	2.5
58	CSc1ccc(S(=O)(=O)NCC(=O)OCCOc2ccccc2)cc1[N+](=O)[O-]	nt	-0.7%	0.3%	nt
59	CC(C)CN(C(=O)COC(=O)CCN1C(=O)c2ccccc2C1=O)C1CCS(=O)(=O)C1 (stereo unspecified)	-2.7%	-19.4%	-0.5%	-3.2
60	Cc1ccccc1NCc1nc2ccccc2n1C	-46.2%	8.6%	-3.4%	nt
61	O=C(Cc1ccc(S(=O)(=O)N2CCCC2)s1)Nc1cccc([N+](=O)[O-])c1	nt	8.1%	-3.5%	nt
62	CCN(CC)C(=O)[C@H]1C[C@H](CC(=O)NCCCN(C)C)C(=O)N2CCc3c([nH]c4cc(CCC(=O)N(C)C)ccc34)[C@]12C	nt	0.6%	1.2%	nt
63	CC(C)CNS(=O)(=O)c1ccc(CCC(=O)N2CCCC2)cc1	4.8%	-4.0%	-0.3%	-5.5
64	O=C1Nc2ccccc2C(=O)N2[C@H](c3ccc(F)cc3)[C@@H]3C(=O)N(Cc4ccccc4)C(=O)[C@@H]3[C@H]12	-12.5%	-1.1%	-3.6%	nt
65	O=C1C(=O)N(c2ccc(O)cc2)C(c2ccccc2[N+](=O)[O-])/C1=C(\O)c1ccccc1 (stereo unspecified)	-1.6%	-26.0%	-2.1%	-5.0
66	Cc1cccc(CSc2nnc(-c3ccco3)n2C)c1	-34.8%	-5.4%	4.1%	-11.0
67	Cc1nnc(SCC(=O)Nc2ccc(N3CCOCC3)cc2)n1-c1ccccc1	0.3%	35.0%	0.4%	6.9
68	Fc1ccccc1CN1CCCCCCC1	-0.1%	3.0%	3.6%	-4.8

These rows are one share of the data; rates above refer to the full screens.
